CSC inhib: blocks cancer stem cells | cancer stem cell-like cells viability, luminescence | inhibition, % at 7.5 µM | actives 1.1% (n = 300,000) | AID 2717;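 active = mean at 75% or more and at least half the replicates too; inconclusive = mean and replicates disagree; tested in HMLE shEcad cells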;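 note: 0% = median of negative and 100% = median of positive control wells; the first replicate is given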
MT1-MMP act inh: inhibitors of human MT1-MMP activation. P50281. HT1080 RFP-PRO-GFP cells, GFP/RFP ratio fluorescence, overnight; percent of plate control window, DMSO zero. GFP/RFP ratio change, % at 20 µM. actives 0.061% (n = 360,000);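 active = GFP/RFP ratio change of at least 30% with cell ATP level not reduced by more than half and red fluorescence within 50% of control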; note: strong numbers were not always called active
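Assay system: RFP-PRO-GFP reporter HT1080 cells; read-out basis: GFP/RFP fluorescence ratio; benchmarks: DMSO wells and RFP-L50D-GFP cells; doses: 20 µM single dose, 1% DMSO; schedule: overnight cell settling, then overnight compound exposure, 37 °C, 5% CO2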
eIF4H inh: inhibitors of RNA binding by human eIF4H; Q15056; AID 2012; actives 0.94% (n = 290,000); inhibition, % at 35 µM; eIF4H fluorescence polarization binding assay;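 active = 50% or more with normal probe brightness, or confirmed in later tests; inconclusive = above 50% with abnormal brightness, or retests that disagree; inactive = below 50% or failed in later tests; about a fifth of its hits are not listed in these tables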;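 note: calls also rest on retests at 20 µM and on dose response follow-up; 0% = protein and probe with vehicle and 100% = probe without protein; strong numbers were not always called active; many hits fall short of the cut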
Env fusion inh: inhibitors of HIV Env-mediated cell fusion; HeLa-JRFL Env/CEM21 cell fusion, luciferase; inhibition, % at 12.3 µM; actives 1.1% (n = 360,000);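 active = mean replicate inhibition score of at least 50 and every replicate individually at or above 50; inconclusive = only one of the two criteria met; inactive = mean below 50 and not all replicates reaching 50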;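 note: 0% = plate neutral controls and 100% = maraviroc near 300 nM; one replicate is shown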
PABP FP inh: blocks human PABP binding to poly(A) RNA; P11940; AID 2014; fluorescence polarization; inhibition, % at 35 µM; actives 1% (n = 290,000);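 active = 50% or more with normal probe brightness, or confirmed in later tests; inconclusive = above 50% with abnormal brightness, or retests that disagree; inactive = below 50% or failed in later tests; about a fifth of its hits are not listed in these tables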;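 note: calls also rest on retests at 20 µM and on dose response follow-up; controls were probe without protein and protein plus probe with vehicle; some compounds called inactive have numbers as strong as hits; many hits fall short of the cut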
Yeast UUG start: modulators of start codon recognition fidelity in yeast. S. cerevisiae UUG-firefly luciferase reporter, luminescence/redox ratio. activity score, % at 18.7 µM. actives 0.13% (n = 350,000);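 active = replicate mean at a twofold rise or more, about +100% in these data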;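 note: firefly luciferase made from a UUG start codon reports start codon fidelity; reporter light over untreated wells divided by growth signal over untreated wells; some hits fall short of that in this replicate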
Rce1 inhib: blocks yeast Ras-converting enzyme; Q03530; yeast membranes, quenched prenylated peptide cleavage fluorescence; calls only; actives 0.27% (n = 290,000); AID 2563;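 active = fall in fluorescence gain of 50% or more versus controls, with final raw signal at or below 3038400; inconclusive = same 50% fall but final raw signal above 3038400; inactive = fall in fluorescence gain under 50%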;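 note: plate controls were neutral control wells for no effect and wells lacking membranes for full effect; tested at 10 µM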
Target sequence (Q03530 whole entry, looked up): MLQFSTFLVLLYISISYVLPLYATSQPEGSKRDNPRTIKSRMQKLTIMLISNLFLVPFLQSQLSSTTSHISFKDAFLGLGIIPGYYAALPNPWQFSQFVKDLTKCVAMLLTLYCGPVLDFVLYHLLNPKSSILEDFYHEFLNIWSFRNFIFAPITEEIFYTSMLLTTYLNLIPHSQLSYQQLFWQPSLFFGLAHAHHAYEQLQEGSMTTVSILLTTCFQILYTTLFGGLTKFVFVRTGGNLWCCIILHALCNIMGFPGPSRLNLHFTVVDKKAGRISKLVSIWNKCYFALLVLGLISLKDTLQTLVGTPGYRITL
eIF4H inh retest: recorded beside eIF4H inh, whose call it bears; inhibition, %; compound at 20 µM; confirmation average;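 mean of two retest wells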
PABP FP inh retest: second read-out of PABP FP inh, no call of its own (marks repeat the call); inhibition, %; compound at 20 µM; confirmation repeats;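 mean of two retest wells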
MT1-MMP act inh RFP: also measured in MT1-MMP act inh; calls as there; RFP signal change, %; measured here: RFP expression control read;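 0 = vehicle wells; hits needed this value within 50% of zero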
* = called active by the depositor; i = inactive; ? = inconclusive; nt = not tested or not shown.

SMILES | CSC inhib | MT1-MMP act inh | MT1-MMP act inh RFP | eIF4H inh | Env fusion inh | PABP FP inh | Yeast UUG start | Rce1 inhib | others
O=C(NC1CCCCCC1)c1ccc(CS(=O)Cc2ccccc2Cl)o1 (stereo unspecified) | -8 | 1 | 0 | -2 | 12 | -6 | -3 | i
CCN(c1ccccc1)S(=O)(=O)c1ccc(C(=O)N(CCN(C)C)c2nc3c(F)cc(F)cc3s2)cc1 | -7 | nt | nt | -9 | nt | -3 | nt | i
CCOc1ccc(-n2c(SCC(=O)OC)nc3sc4c(c3c2=O)CCN(C)C4)cc1 | -6 | 0 | 2 | -7 | 4 | 12 | -9 | i
O=C1NN=C(c2ccccc2)CC1c1ccc(Cl)cc1Cl (stereo unspecified) | -4 | 0 | -3 | -1 | 13 | -5 | nt | i
O=C(O)CCCNC(=O)/C(=C\c1ccccc1F)NC(=O)c1ccccc1 | -9 | 3 | 9 | -8 | -12 | -5 | nt | i
COc1ccc(OCC(=O)Nc2ccc3c(c2)nc(CCN2CCC(C)CC2)n3C)cc1 | 2 | 2 | -3 | 0 | 19 | -4 | nt | i
Cc1ccnc(Sc2ccc([N+](=O)[O-])cc2[N+](=O)[O-])n1 | 1 | 0 | -11 | -4 | 27 | 7 | -26 | i
O=C(Nc1c(-c2ccc(Cl)cc2)[nH][nH]c1=O)c1ccc(Br)cc1 | nt | 4 | 0 | nt | -4 | nt | -15 | nt
O=C(O)c1cc([N+](=O)[O-])ccc1NCc1ccccc1 | nt | 11 | -1 | -9 | 13 | -1 | nt | i
Cc1c(C(=O)c2ccc(F)cc2)c2ccccn2c1CCc1ccccn1 | -7 | 0 | 2 | ? | 11 | 6 | nt | i
O=S(=O)(O)CCN1CCOCC1 | -2 | 2 | 3 | -9 | nt | 7 | -20 | i
CC(C)Nc1nc(N(c2ccccc2)c2ccccc2)nc(-n2ccnc2)n1 | 42 | -28 | -4 | 0 | nt | 3 | -18 | nt
Cn1cc(S(=O)(=O)NCc2ccc3c(c2)OCO3)c(C(F)(F)F)n1 | -11 | -1 | 2 | 6 | 4 | 8 | -11 | i
CC(Oc1ccccc1)C(=O)N1CCC2(CC1)Oc1ccc(F)cc1C(=O)C21CC(c2ccccc2)=NO1 (stereo unspecified) | 10 | 0 | -1 | nt | -36 | nt | -7 | i
O=C(c1ccco1)N1N=C2CCCCCC2C1(O)C(F)(F)F (stereo unspecified) | 7 | -2 | -1 | 1 | -2 | -2 | nt | i
O=C(Cn1cc([N+](=O)[O-])ccc1=O)N1CCCc2ccccc21 | nt | 2 | 3 | nt | nt | nt | -14 | i
O=C(c1ccc(N2CCCC2)c([N+](=O)[O-])c1)N1CCN(S(=O)(=O)c2ccc(Cl)cc2)CC1 | 34 | 7 | -3 | nt | 3 | nt | -8 | i
CCN(Cc1cccs1)C(=O)CN1C(=O)NC2(CCCc3ccccc32)C1=O (stereo unspecified) | -9 | 0 | 0 | nt | nt | nt | -16 | nt
Cc1cccc(NC(=S)NNC(=S)NC2CCCCC2)c1C | -7 | -2 | -10 | 12 | -8 | -10 | nt | i
COc1ccc(C(=O)CC2OC(=O)c3c2ccc(OC)c3OC)cc1 (stereo unspecified) | nt | 1 | 2 | -18 | nt | 2 | 1 | i
Cc1ccc([C@@H]2[C@@H]3C(=O)N(c4ccccc4)C(=O)[C@@H]3[C@]3(C)C(=O)N(Cc4ccccn4)CC(=O)N23)o1 | 12 | 1 | 7 | -1 | 15 | 3 | -14 | i
CCC(C(=O)Nc1ccccc1C(=O)N1CCOCC1)N1C(=O)c2ccccc2C1=O (stereo unspecified) | -10 | 4 | 7 | -3 | -4 | 6 | 9 | i
Cn1cnnc1SCc1ccccc1[N+](=O)[O-] | -7 | 4 | 5 | -9 | -7 | -4 | -1 | i
Cc1ccccc1CS(=O)(=O)CCC(=O)N1CCN(c2ccc(N3CCOCC3)nn2)CC1 | -15 | -3 | -4 | -6 | nt | 4 | -25 | i
CC(=O)N=c1sc2ccccc2n1C | nt | 4 | 5 | 2 | nt | 1 | nt | i
CCOc1ccc(-c2nn(-c3ccccc3)cc2/C=C2\SC(N)=NC2=O)cc1C | 33 | -2 | -3 | -13 | nt | -7 | -2 | i
O=C(CSc1cc(Cl)ccc1Cl)NCC(=O)Nc1ccc(F)c(F)c1F | 15 | 4 | 2 | -3 | nt | -3 | nt | i
S=C(NNc1ccc2ccccc2c1)NC1CCCCC1 | nt | 3 | -3 | 21 | nt | 6 | -25 | i
Cc1cc(NC(=O)c2cc([N+](=O)[O-])cc([N+](=O)[O-])c2C)no1 | 2 | -4 | 4 | 37 | 13 | 27 | nt | i
CCOC(=O)Cn1cnc2c(cnn2-c2ccc(Cl)cc2)c1=O | 6 | 4 | 1 | -13 | nt | -3 | 2 | i
CCn1nc(C(=O)OCC(=O)c2c[nH]c3ccccc23)c2ccccc2c1=O | 0 | 6 | 3 | 8 | 6 | 6 | nt | i
O=C(NCCc1ccc(F)cc1)c1ccc(S(=O)(=O)N2CCCCC2)cc1 | nt | 0 | -2 | nt | -9 | nt | -7 | nt
Nc1cc(=O)[nH]c(SCCNS(=O)(=O)c2ccccc2)n1 | -8 | 3 | 6 | -8 | nt | 1 | 2 | i
CC(C)Oc1ccc(CN2CCC2(C)C(=O)Nc2ccc(Cl)c(Cl)c2)cc1 (stereo unspecified) | nt | -1 | -12 | nt | 7 | nt | 13 | nt
CCC(=O)OCCNc1cc(SCCC(=O)OC)c2nonc2c1[N+](=O)[O-] | -9 | 1 | 5 | -6 | 14 | 22 | nt | i
S=c1[nH]nc(-c2cc(-c3ccco3)[nH]n2)n1-c1ccccc1 | -14 | 4 | -1 | 6 | -9 | 5 | nt | i
Cc1ccc[n+](CC2OCc3ccccc3CO2)c1 | -10 | 3 | 8 | 2 | 0 | 3 | nt | i
Cc1sc2ncnc(N=Nc3c(O)[nH]c4ccccc34)c2c1C | -3 | -13 | 1 | -2 | -23 | -10 | -15 | i
CCOC(=O)c1ccc(NC(=O)CC2SC3=NCCN3C2=O)cc1 (stereo unspecified) | 2 | 2 | 2 | -3 | 8 | -8 | nt | i
O=C(CSc1nc2ccccc2[nH]1)NCCN1CCCCC1 | -12 | 0 | 8 | 4 | nt | 5 | -20 | i
CN(CCc1cnn(C)c1)Cc1nc(Cc2ccccc2)no1 | -2 | 1 | -2 | 6 | -8 | -12 | -19 | i
Oc1c(N=Nc2ccc(F)cc2)ccc2ccccc12 | 31 | 23 | 9 | 50 | -200 | 17 | -18 | i | eIF4H inh retest=6;PABP FP inh retest=34
CCCN(S(=O)(=O)c1ccc(OCC)cc1)S(=O)(=O)c1cccs1 | 30 | 5 | 2 | -2 | -71 | -13 | -9 | i
Cc1ccccc1-c1noc(CNC(=O)c2ccco2)n1 | -18 | 0 | 0 | -5 | -5 | 4 | 0 | i
Cc1ccccc1Nc1nc(N)c2ccccc2n1 | 29 | 36 | -3 | -7 | -110 | -5 | -39 | i
COc1ccc(S(=O)(=O)N2CCSC2)cc1C | 0 | -14 | -2 | -5 | -5 | -5 | -16 | i
O=C(NCCNc1ccc([N+](=O)[O-])cc1C(F)(F)F)c1ccc(F)cc1 | nt | 13 | 3 | -7 | nt | -10 | nt | i
CCOc1ccc(C(=O)Nc2ccccc2OC(F)F)cc1 | -8 | -2 | 1 | -5 | -8 | 0 | -15 | i
COc1ccccc1OCCC(=O)OCC(=O)NC(C)c1ccccc1 (stereo unspecified) | 11 | -1 | 3 | 1 | -5 | -1 | nt | i
O=C(Nc1cc(Br)ccc1O)c1cc(-c2ccccc2)on1 | nt | -1 | -1 | -13 | -34 | -12 | -9 | i

Next part
SMILES | CSC inhib | MT1-MMP act inh | MT1-MMP act inh RFP | eIF4H inh | Env fusion inh | PABP FP inh | Yeast UUG start | Rce1 inhib | others
CCc1csc(CCNC(=O)C2CCC(=O)N(CCOC)C2)n1 (stereo unspecified) | -12 | 1 | 2 | -2 | -5 | 4 | -11 | i
CC(=O)C1=C(O)C(=O)N(CCc2c[nH]c3ccccc23)C1c1ccc(O)cc1 (stereo unspecified) | nt | -1 | 5 | 1 | 9 | 10 | nt | i
CC1CCC(NC(=O)C(=O)Nc2ccc3c(c2)OCO3)CC1 (stereo unspecified) | 39 | 0 | 0 | -7 | -52 | 10 | -15 | i
CCOc1ccccc1OCCCC(=O)Nc1cc(S(=O)(=O)N2CCOCC2)ccc1OC | -22 | 2 | -3 | nt | 33 | nt | -10 | nt
CCOC(=O)[C@H]1[C@H]2COc3ccc(Br)cc3[C@@H]2N2C(=O)CN(Cc3ccc(OC)cc3)C(=O)[C@@]12C | 8 | -1 | 0 | nt | -230 | nt | 1 | nt
O=C(CCC(=O)N1CCN(c2ccccn2)CC1)c1ccc(Cl)s1 | 14 | -1 | 4 | nt | -4 | nt | -7 | nt
COc1ccc(NC(=O)CN2CCN(CC(=O)Nc3ccc(F)cc3)CC2)c(OC)c1 | -6 | 1 | -4 | 5 | 9 | -5 | -16 | i
CCOc1ccccc1C(=O)NCC(=O)NCC(C)(C)N1CCOCC1 | -7 | 6 | 10 | nt | 2 | nt | -23 | nt
CCC(C)NCCCOc1c(C)cc(C)cc1Br (stereo unspecified) | 2 | -3 | -6 | 4 | -13 | -5 | -18 | i
CC(=O)N1CCN(C(=O)COc2ccc(Br)cc2)CC1 | -1 | 1 | -1 | -8 | nt | -1 | -8 | i
N/C(Cc1ccc([N+](=O)[O-])cc1)=N\OC(=O)Cc1ccc(Cl)cc1 | 8 | -1 | 0 | -2 | 22 | -6 | -2 | i
CS(=O)(=O)NCCSc1nnnn1-c1ccccc1 | -12 | 6 | 0 | 0 | nt | 2 | 2 | i
Cc1ccc(C)c(N(CC(=O)NC2CCCCC2)C(=O)c2csnn2)c1 | -7 | -2 | -1 | -1 | -3 | 0 | -9 | i
O=[N+]([O-])c1cccnc1C1OCCO1 | nt | -5 | -3 | nt | 2 | nt | -9 | nt
COC(=O)C1=CN(c2ccc(OC)cc2)C=C(C(=O)OC)C1c1ccc(C)c([N+](=O)[O-])c1 | 24 | 0 | 1 | -14 | 0 | 2 | -16 | i
COCCC(=O)N1CCC(Oc2ccc(C(=O)NC3Cc4ccccc4C3)cc2)CC1 | -10 | 5 | -11 | -14 | 15 | -5 | 4 | i
CCOc1ccc(-c2nn(-c3ccccc3)cc2/C=C(\C#N)S(=O)(=O)c2ccccc2)cc1C | 8 | 9 | 5 | 5 | nt | -6 | -4 | i
Cc1cc2c(cc1S(=O)(=O)N1CCc3ccccc31)NC(=O)CO2 | -10 | 0 | -6 | 4 | 19 | 6 | 0 | i
CCCCNC(=O)NNC(=O)COc1cc(C)cc(C)c1 | -1 | 4 | 2 | -3 | 4 | -8 | nt | i
CC(C)CC(NC(=O)COc1ccccc1)C(=O)O (stereo unspecified) | nt | 0 | 1 | 0 | 9 | 3 | nt | i
CCOc1cc(/C=N/NC(=O)c2ccncc2)ccc1OC(=O)c1ccc([N+](=O)[O-])cc1 | 2 | 9 | 4 | -4 | nt | 7 | -9 | i
Cc1ccccc1OCCC(=O)OCC(=O)Nc1ccc(C)c(S(=O)(=O)N2CCCCC2)c1 | nt | -1 | 5 | nt | 10 | nt | -4 | nt
CCN(CC)c1ccc(/C=N/N2CCN(Cc3ccccc3Cl)CC2)c(O)c1 | 64 | -2 | -3 | -8 | 17 | 1 | -19 | i

Source: PubChem BioAssay
